# Screening results from PubChem BioAssay.
# MT1-MMP act inh: inhibitors of human MT1-MMP activation; P50281; HT1080 RFP-PRO-GFP cells, GFP/RFP ratio fluorescence, overnight; percent of plate control window, DMSO zero; GFP/RFP ratio change, % at 20 µM; AID 651647; 0.061% of 360,000 active;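 active = GFP/RFP ratio change of at least 30% with cell ATP level not reduced by more than half and red fluorescence within 50% of control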; also: strong numbers were not always called active
#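 system = RFP-PRO-GFP reporter HT1080 cells | dosing = 20 µM single dose, 1% DMSO | timing = overnight cell settling, then overnight compound exposure, 37 °C, 5% CO2 | read-out basis = GFP/RFP fluorescence ratio | controls = DMSO and RFP-L50D-GFP cell wells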
# PABP polyA inh: PABP-poly(A) binding inhibition | inhibition, % at 35 µM | P11940 | 1% of 290,000 active | PABP-poly(A) RNA binding, fluorescence polarization;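 active = 50% or more with normal probe brightness, or confirmed in later tests; inconclusive = above 50% with abnormal brightness, or retests that disagree; inactive = below 50% or failed in later tests; about a fifth of its hits are not listed in these tables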;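 also: calls also rest on retests at 20 µM and on dose response follow-up; controls were probe without protein and protein plus probe with vehicle; some compounds called inactive have numbers as strong as hits; many hits fall short of the cut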
# Target sequence (P11940 whole entry, looked up): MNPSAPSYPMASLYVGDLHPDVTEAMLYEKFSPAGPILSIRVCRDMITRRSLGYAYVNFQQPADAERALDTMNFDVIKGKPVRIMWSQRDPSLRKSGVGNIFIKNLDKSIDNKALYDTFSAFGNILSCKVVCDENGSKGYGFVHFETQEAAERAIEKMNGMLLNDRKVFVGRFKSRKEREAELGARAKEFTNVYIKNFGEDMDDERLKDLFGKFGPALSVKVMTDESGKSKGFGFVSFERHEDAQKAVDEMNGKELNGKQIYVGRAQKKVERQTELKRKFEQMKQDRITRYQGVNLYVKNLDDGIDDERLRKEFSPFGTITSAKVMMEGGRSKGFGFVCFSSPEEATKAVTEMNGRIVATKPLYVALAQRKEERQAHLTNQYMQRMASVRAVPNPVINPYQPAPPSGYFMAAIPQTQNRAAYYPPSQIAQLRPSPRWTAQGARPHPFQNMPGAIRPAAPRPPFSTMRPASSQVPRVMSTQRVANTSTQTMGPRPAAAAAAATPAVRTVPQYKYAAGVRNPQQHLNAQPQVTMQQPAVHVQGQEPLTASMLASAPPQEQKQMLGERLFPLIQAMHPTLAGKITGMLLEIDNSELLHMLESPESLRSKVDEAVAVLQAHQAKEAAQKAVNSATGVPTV
# UUG fidelity: modulators of start codon recognition fidelity in yeast. S. cerevisiae UUG-firefly luciferase reporter, luminescence/redox ratio. activity score, % at 18.7 µM. 0.13% of 350,000 active. AID 602363;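 active = replicate mean at a twofold rise or more, about +100% in these data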;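 also: firefly luciferase made from a UUG start codon reports start codon fidelity; reporter light over untreated wells divided by growth signal over untreated wells; some hits fall short of that in this replicate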
# HIV Env fusion: blocks HIV Env-driven cell-cell fusion. inhibition, % at 12.3 µM. AID 651610. HeLa-JRFL Env/CEM21 cell fusion, luciferase. 1.1% of 360,000 active;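 active = mean replicate inhibition score of at least 50 and every replicate individually at or above 50; inconclusive = only one of the two criteria met; inactive = mean below 50 and not all replicates reaching 50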;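 also: 0% = plate neutral controls and 100% = maraviroc near 300 nM; one replicate is shown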
# Rce1 inh: inhibitors of yeast Ras-converting enzyme; yeast membranes, quenched prenylated peptide cleavage fluorescence; calls only; 0.27% of 290,000 active; AID 2563;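 active = fall in fluorescence gain of 50% or more versus controls, with final raw signal at or below 3038400; inconclusive = same 50% fall but final raw signal above 3038400; inactive = fall in fluorescence gain under 50%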;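 also: plate controls were neutral control wells for no effect and wells lacking membranes for full effect; tested at 10 µM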
# CSC inhib: cancer stem cell inhibition; 1.1% of 300,000 active; cancer stem cell-like cells viability, luminescence; inhibition, % at 7.5 µM; AID 2717;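 active = mean at 75% or more and at least half the replicates too; inconclusive = mean and replicates disagree; tested in HMLE shEcad cells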;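 also: 0% = median of negative and 100% = median of positive control wells; the first replicate is given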
# eIF4H inh: inhibitors of RNA binding by human eIF4H. inhibition, % at 35 µM. eIF4H fluorescence polarization binding assay. Q15056. AID 2012. 0.94% of 290,000 active;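 active = 50% or more with normal probe brightness, or confirmed in later tests; inconclusive = above 50% with abnormal brightness, or retests that disagree; inactive = below 50% or failed in later tests; about a fifth of its hits are not listed in these tables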;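 also: calls also rest on retests at 20 µM and on dose response follow-up; 0% = protein and probe with vehicle and 100% = probe without protein; strong numbers were not always called active; many hits fall short of the cut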
# eIF4H inh retest: further read-out of eIF4H inh, marked with its call; inhibition, %; compound at 20 µM; confirmation average;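 mean of two retest wells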
# PABP polyA inh retest: recorded beside PABP polyA inh, whose call it bears; inhibition, %; compound at 20 µM; confirmation repeats;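 mean of two retest wells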
# MT1-MMP act inh RFP: also measured in MT1-MMP act inh; calls as there; RFP signal change, %; measured here: RFP expression control read;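 0 = vehicle wells; hits needed this value within 50% of zero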
# * hit, by the source's call; i = inactive; ? = inconclusive; nt = not tested or not shown; & = joins results of further samples. Compounds were not picked by outcome; about 2.9% have a hit in one of these screens.
SMILES,MT1-MMP act inh,MT1-MMP act inh RFP,PABP polyA inh,UUG fidelity,HIV Env fusion,Rce1 inh,CSC inhib,eIF4H inh,others
CCOC(=O)C1CCCN(CC(=O)N(C)c2c(N)n(Cc3ccccc3)c(=O)[nH]c2=O)C1 (configuration not stated),-4,0,nt,-11,-2,nt,-4,nt,
CCCCNCC(=O)Nc1ccc(NC(=O)CNCCCC)cc1,-1,-1,7,-2,nt,i,-10,-1,
Cc1nnc(SCC(=O)Nc2ncc(Cl)cc2Cl)n1Cc1ccccc1,1,-3,-4,-5,nt,i,-4,-3,
CCOc1ccc(-n2c(SCc3ccc(C#N)cc3)nnc2-c2cccnc2)cc1,7,1,-2,0,-17,i,1,4,
CCCCn1cnc2c(cnn2-c2ccc(F)cc2)c1=O,2,-7,-11,0,nt,i,-11,-2,
CCc1n[nH]c2c1/C(=N/O)CCC2,6,-1,3,4,nt,i,6,0,
Cc1ccc(S(=O)(=O)C(CCC(=O)c2ccc(Cl)cc2)C(N)=O)cc1 (configuration not stated),3,2,7,-11,-16,i,2,9,
CC1CCCC(NC(=O)c2ccc(F)c(S(=O)(=O)N3CCOCC3)c2)C1C (configuration not stated),-1,-4,nt,nt,7,i,-4,nt,
O=C(Nc1nnc(CCc2ccccc2)s1)c1cccc(F)c1,3,2,-1,-13,-154,i,0,6,
O=C(COc1ccccc1Cl)Nc1ccc(N2CCCC2)cc1,5,-3,-2,-16,-17,i,-5,-21,
COc1cccc(CN(C)C(=O)C2CCN(S(=O)(=O)c3cccs3)CC2)c1OC,-3,6,nt,-1,nt,nt,-7,nt,
O=C(CN1C(=O)NC2(CCCC2)C1=O)Nc1ccccc1-c1ccccc1,4,1,0,9,-5,i,0,0,
S=C(Nc1ccccc1)N1CCC(C2CCN(C(=S)Nc3ccccc3)CC2)CC1,nt,nt,1,nt,nt,nt,-6,0,
CCN1C(=NCCCCO)N[C@@H](c2cccc(C(F)(F)F)c2)C(C(=O)OC)=C1C,-2,2,46,-13,-27,i,1,8,
CC(=O)c1c(C)[nH]c(C(=O)NCc2ccc(C)cc2)c1C,-3,1,-7,-11,-143,i,-8,-4,
O=C(COC(=O)CNS(=O)(=O)c1c(Cl)cccc1Cl)Nc1cccnc1Cl,0,9,-9,-24,21,i,-14,5,
CCOC(=O)N1CCC(NC(=O)C(Cc2ccccc2)NC(=O)C2CCCCC2)CC1 (configuration not stated),1,5,-8,-1,-14,i,-13,-1,
COc1ccc(Cc2noc(CN(C)C3CC(C)(C)NC(C)(C)C3)n2)cc1OC,2,3,-5,nt,6,i,-14,-4,
Clc1ccc(CSc2nnc(-c3ccccn3)n2Cc2cccs2)cc1Cl,-5,-10,nt,1,-15,nt,nt,nt,
C[C@H]1CN([C@@H](C)CO)C(=O)c2cc(-c3cccc(C#N)c3)cnc2O[C@H]1CN(C)C(=O)c1ccccn1,-1,5,nt,-3&-21&-9,-10,nt,nt,nt,
N#C/C(=C\c1cccs1)C(=O)NCc1ccco1,-1,1,2,nt,-15,i,-6,6,
Cc1cccc(C)c1N(CC(=O)NCc1ccco1)C(=O)CNS(=O)(=O)c1ccc(F)cc1,2,4,4,2,4,i,-7,2,
Cc1nc2ccc(C(=O)NCCc3c[nH]c4ccccc34)cn2c1N(C)C(=O)CCc1ccccc1,-1,-4,nt,-15,-16,nt,nt,nt,
CCOc1cc(/C=N/NC(=O)c2ccccc2-n2cccc2)ccc1O,-4,-10,nt,-10,26,nt,17,nt,
COc1c(C)cc(C(=O)C2CCCN(S(=O)(=O)c3c(C)noc3C)C2)cc1C (configuration not stated),-3,-10,-1,nt,27,i,13,2,
CN(C)C=Nc1ccc(Cl)c(Cl)c1,3,-1,12,nt,-3,i,-4,6,
O=C(Nc1ccc(S(=O)(=O)N2CCCCC2)cc1)C1CC(=O)N(c2ccccc2)C1 (configuration not stated),-1,-5,-10,-17,22,i,-12,0,
O=C(c1ccc(Cl)cc1)c1c[nH]cc1-c1ccccc1,3,3,-5,-21,-116,i,-10,6,
CCCCNC(=S)NNC(=O)c1cc(C2CC2)nc2ccccc12,-1,4,2,-21,0,i,-4,2,
CCc1cccc(C)c1NC(=O)c1cccc(N(C)C)c1,-1,3,-2,-13,nt,i,-12,-5,
CCN(CC)c1ccc(C2NCC(c3ccc([N+](=O)[O-])cc3)O2)cc1 (configuration not stated),17,1,-2,4,nt,i,5,-10,
CCOc1ccc(CN(C)c2nc(-c3cccnc3)nc3ccccc23)cc1OC,1,-13,1,-8,4,i,19,-5,
CCOc1ccc(C(=O)COC(=O)c2nn(CC)c(=O)c3ccccc23)cc1,2,3,nt,-4,-26,nt,nt,nt,
Cc1ccc(OCCOCCNC(C)C)c(Br)c1,4,4,4,-6,nt,i,3,3,
COc1ccc(-n2nc([N+](=O)[O-])c(=NCCc3cccc(C)c3)n2O)cc1,4,5,32,nt,-23,i,-3,0,
CCN(c1cccc(C)c1)C1C(=O)c2ccccc2N1C(C)=O (configuration not stated),-2,1,3,-16,-5,i,nt,0,
O=C1CC(c2ccco2)Sc2nc3ccccc3n21 (configuration not stated),-8,7,63*,-23,-37,i,-11,89*,eIF4H inh retest=84*;PABP polyA inh retest=93*
COc1ccc(CN(C)CC(=O)NC(=O)NCc2ccccc2)c(OC)c1,0,-1,-8,nt,-6,i,1,4,
CC(C)CC1c2[nH]c3ccccc3c2CCN1C(=O)c1cnccn1 (configuration not stated),nt,nt,-1,nt,1,i,-2,-2,
COC(=O)c1cn(-c2ccccc2)nc1-c1ccncc1,-1,2,-5,-9,16,i,nt,-8,
O=C(CSc1nnc(COc2ccc(Cl)cc2)o1)OC1CCCCC1,2,0,-6,-10,-90,i,0,-12,
COc1ccc(CC(=O)N[C@@H](C)C(=O)N2CCC3(CC2)NCCc2[nH]cnc23)cc1,3,7,nt,-13,-3,i,-6,nt,
CSCCC(NS(=O)(=O)c1ccccc1)C(=O)OCc1nc2ccsc2c(=O)[nH]1 (configuration not stated),11,-1,nt,22,nt,i,-10,nt,
CCOC(=O)c1ccc(CSc2nnc(N)s2)cc1,4,-1,-6,-12,-25,i,10,-1,
Cc1cc(C)nc(NS(=O)(=O)c2ccc(NC(=O)c3ccccc3[N+](=O)[O-])cc2)n1,4,-2,8,-4,23,i,3,0,
CCCn1nnc(NC(=O)c2ccc(-c3ccccc3)cc2)n1,-1,-3,-6,-14,nt,i,25,-12,
Cc1ccc(CN2CC[C@H]3C=CCc4cccc(c43)C2)cc1,2,1,nt,-12,2,nt,20,nt,
CCC1CCCCN1CCCNC(=O)Cn1nc(-c2ccccc2)ccc1=O (configuration not stated),1,-2,9,-8,nt,i,-18,7,
Cc1ccc2c(CC(=O)OCc3csc(C)n3)coc2c1,5,2,6,-11,-28,i,4,4,
O=C(O)CSc1c2c(nc3cc(C(=O)N4CCCC4)ccc13)CCCC2,6,8,-9,nt,4,i,nt,10,

# Next section.
SMILES,MT1-MMP act inh,MT1-MMP act inh RFP,PABP polyA inh,UUG fidelity,HIV Env fusion,Rce1 inh,CSC inhib,eIF4H inh,others
CCNc1nc(-c2ccc(Cl)cc2)cs1,1,-9,-9,-10,nt,i,12,-6,
Cc1cc(-c2nc3cccnc3s2)ccc1NS(=O)(=O)c1cccs1,2,1,6,-18,nt,i,9,-3,
Cc1cc(NCCCn2ccnc2)n2nc(-c3ccc(F)cc3)cc2n1,4,-4,-4,nt,nt,i,-7,-8,
Cc1sc2nc(CN3CCOCC3)nc(Oc3ccc(NC(=O)c4ccco4)cc3)c2c1C,2,-3,4,-8,16,i,-15,-3,
Cc1cccc(NC(=O)CSc2nnc(CCNC(=O)OC(C)(C)C)o2)c1C,-2,4,11,nt,-1,i,-9,-9,
CC(C)C(=O)NC(c1ccc(N(C)C)cc1)c1c(O)ccc2ccccc12 (configuration not stated),-2,4,13,17,7,i,-2,0,
CCN1CCSc2ccc(C(=O)NCc3ccccc3Br)cc21,-9,-4,0,-6,10,i,5,-7,
O=C1c2ccccc2-c2onc3c(N4CCN(CCO)CC4)cc(N4CCN(C(=O)c5ccco5)CC4)c1c23,2,5,72*,0,9,i,17,83*,
COc1ccc(-c2noc(C)c2-c2ccc3ccccc3n2)c(O)c1,-4,-18,-12,nt,nt,i,39,-8,
CCN(CC)S(=O)(=O)c1ccc(NC(=O)c2ccc(N3CCCC3=O)cc2)cc1,-2,-32,nt,-3,28,nt,6,nt,
CSc1ccc(CNC(=O)C2(C)CCN2C(C)C)cc1 (configuration not stated),3,7,nt,-14,-10,nt,nt,nt,
CC(C)C(OC(=O)CN1C(=O)c2ccccc2C1=O)C(=O)NC1CCCCC1 (configuration not stated),1,1,0,-2,8,i,0,-10,
Cc1cc(C)cc(NC(=O)Nc2c(Br)cnn2C)c1,nt,nt,-12,-1,nt,i,nt,1,
CCOc1nc2ccccc2nc1NS(=O)(=O)c1ccc(Cl)cc1,-4,-2,4,-1,8,i,0,-4,
Cc1ccc(C(=O)OCC(=O)NC(=O)c2ccccc2)o1,2,3,nt,-23,1,i,-4,nt,
CC1CCN(C(=O)CSc2nc(N)cc(N)n2)CC1,3,3,-9,-16,-118,i,nt,0,
Cc1cc2oc(=O)ccc2cc1[N+](=O)[O-],1,2,12,-15,-35,i,-3,9,
Cc1cc(=O)n2c(C(=O)Nc3ccc(C)c(C)c3)c(C(=O)Nc3ccccc3)sc2n1,-2,-4,-5,nt,-10,i,-9,11,
Cc1ccc2[nH]c3c(c2c1)CCc1cn[nH]c1-3,-5,3,7,-8,nt,i,30,-2,
C/C(=N\NC(=O)COc1cccc(Br)c1)c1ccc2c(c1)OCCO2,-1,2,nt,-15,0,nt,nt,nt,
COc1ccc2c(c1)C(=O)CC(c1ccccc1F)O2 (configuration not stated),0,0,-1,-4,nt,i,-2,11,
O=C(CN1CCCCCC1)NCCN1C(=O)S/C(=C\c2ccccc2Cl)C1=O,0,3,-7,nt,16,i,1,-10,
COc1cc2c(cc1OC)CN(C(=O)CNS(=O)(=O)c1ccc(C)c(C)c1)CC2,-1,2,-1,nt,-6,i,-4,-10,
Cc1cc(C)n2nc(SCC(=O)Nc3ccc(F)cc3[N+](=O)[O-])nc2n1,0,-2,nt,-6,5,nt,-18,nt,
CC(=O)OCc1cc(=O)n(C)c(=O)n1C,-1,2,11,-10,-17,i,-12,-2,
Cc1ccc(CCNC(=O)Cn2ccc3cc(S(=O)(=O)N4CCCC4)ccc32)cc1,4,-3,7,2,-4,i,-6,-6,
O=C(CN1CCN(c2ccc(F)cc2)CC1)Nc1ccc(S(=O)(=O)N2CCOCC2)cc1,0,-7,10,-1,?,i,-10,-14,
CCS(=O)(=O)c1nc2ccccc2n1Cc1ccccn1,1,-2,-11,nt,11,i,-3,-7,
O=c1cc(-c2ccc([N+](=O)[O-])cc2)nc2cc(-c3ccc(Cl)cc3)[nH]n12,nt,nt,2,nt,nt,nt,26,49,
CC(=O)c1ccc(NC(=S)NC(C)c2ccc(Cl)cc2Cl)cc1 (configuration not stated),6,-8,-1,-30,4,i,30,-1,
O=C(COc1ccc(Cl)cc1)NCc1cn2cc(Cl)ccc2n1,3,2,-6,-14,2,i,-2,-1,
CCCNC(=O)c1cnc(Sc2ncc(C(F)(F)F)cc2Cl)n1C,5,4,6,0,nt,i,-11,0,
O=C(CSc1ccc(-c2ccncc2)nn1)N1CCCC1,-3,-3,-6,-2,-15,i,-6,39,
